Screens: PubChem, Broad Institute
HIV Env fusion = inhibitors of HIV Env-mediated cell fusion; 360,000 compounds, 1.1% hits; inhibition, % at 12.3 µM; HeLa-JRFL Env/CEM21 cell fusion, luciferase;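 active means mean replicate inhibition score of at least 50 and every replicate individually at or above 50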;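 further: 0% = plate neutral controls and 100% = maraviroc near 300 nM; one replicate is shown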
Yeast UUG start = yeast start codon fidelity modulation | S. cerevisiae UUG-firefly luciferase reporter, luminescence/redox ratio | activity score, % at 18.7 µM | 350,000 compounds, 0.13% hits;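 active means replicate mean at a twofold rise or more, about +100% in these data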;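 further: firefly luciferase made from a UUG start codon reports start codon fidelity; reporter light over untreated wells divided by growth signal over untreated wells; some hits fall short of that in this replicate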
Active calls of the source: *; [ ] = another dose, or the depositor's remark. These rows are one share of the data; count on the stated rates, not on these rows.

SMILES | HIV Env fusion | Yeast UUG start
Cc1ccc(S(=O)(=O)Nc2ccc3c(c2)C(=O)N([C@@H](C)CO)C[C@@H](C)[C@H](CN(C)C)OCCCC[C@H](C)O3)cc1 | -5[16.7 µM] | 21
CNC[C@H]1Oc2c(NC(=O)Nc3c(C)noc3C)cccc2C(=O)N([C@H](C)CO)C[C@H]1C | 5[16.7 µM] | 10
COc1ccc(CN(C)C[C@H]2OCCCC[C@@H](C)Oc3ccc(NC(=O)c4ccncc4)cc3C(=O)N([C@@H](C)CO)C[C@H]2C)cc1 | -49[16.7 µM] | 8
CC(C)CC#Cc1ccc2c(c1)O[C@@H](CN(C)C(=O)CC1CC1)[C@@H](C)CN([C@@H](C)CO)S2(=O)=O | 20[16.7 µM] | -3
C[C@H](CO)N1C[C@H](C)[C@@H](CN(C)Cc2ccccc2)Oc2cc(-c3ccccc3)ccc2S1(=O)=O | 46[16.7 µM] | 10
Cc1noc(C)c1S(=O)(=O)Nc1ccc2c(c1)C(=O)N([C@@H](C)CO)C[C@H](C)[C@H](CN(C)CC1CCCCC1)OCCCC[C@@H](C)O2 | -9[16.7 µM] | 27
CCC(=O)N1C[C@H](C)[C@H](OC)CN(C)C(=O)c2ccc(NC(=O)C3CCCCC3)cc2OC[C@@H]1C | 2[16.7 µM] | 5
C[C@H](CO)N1C[C@H](C)[C@H](CN(C)Cc2ccc(Cl)c(Cl)c2)Oc2c(NC(=O)Nc3ccccc3)cccc2C1=O | 8[16.7 µM] | 32
O=C(C[C@@H]1C=C[C@H](NS(=O)(=O)c2cccc(F)c2)[C@@H](CO)O1)N1CCCCC1 | -31[16.7 µM] | -13
C[C@@H]1CN([C@@H](C)CO)C(=O)Cc2cc(NC(=O)Nc3ccc4c(c3)OCO4)ccc2O[C@H]1CN(C)S(=O)(=O)c1ccc(Cl)cc1 | 22[16.7 µM] | 0
O=C(C[C@@H]1C[C@@H]2c3cc(NC(=O)C4CCOCC4)ccc3O[C@@H]2[C@H](CO)O1)NCc1ccccc1 | 22[16.7 µM] | -3
C[C@@H]1CCCCO[C@@H](CN(C)Cc2ccccc2)[C@@H](C)CN([C@@H](C)CO)C(=O)c2cc(NS(=O)(=O)c3ccccc3)ccc2O1 | 7[16.7 µM] | -3
CNC[C@@H]1Oc2ccc(NC(=O)CCN3CCOCC3)cc2C(=O)N([C@@H](C)CO)C[C@@H]1C | -1[16.7 µM] | 2
CN(C)CC(=O)N[C@H]1CC[C@@H](CCn2cc(C3CCCC3)nn2)O[C@H]1CO | -1[16.7 µM] | 0
CC(C)NC(=O)Nc1ccc2c(c1)C(=O)N(C)[C@@H]1CC[C@H](CC(=O)NCC3CCCCC3)O[C@@H]1CO2 | -3[16.7 µM] | 16
CN(C)Cc1cn(CC[C@H]2CC[C@@H](NC(=O)Nc3ccc4c(c3)OCO4)[C@H](CO)O2)nn1 | 3[16.7 µM] | -7
CC(C)CC#Cc1ccc2c(c1)O[C@H](CN(C)C(=O)NC(C)C)[C@H](C)CN([C@H](C)CO)S2(=O)=O | -2[16.7 µM] | 2
COc1ccc(S(=O)(=O)N(C)C[C@@H]2Oc3cc(C4=CCCC4)ccc3S(=O)(=O)N([C@@H](C)CO)C[C@@H]2C)cc1 | -2[16.7 µM] | 29
O=C(C[C@H]1CC[C@H]2[C@@H](COC[C@@H](O)CN2Cc2ccc3c(c2)OCO3)O1)N1CCCCC1 | 43[16.7 µM] | -5
C[C@@H]1CN([C@H](C)CO)C(=O)c2cc(NC(=O)Nc3ccc(F)cc3)ccc2O[C@H]1CN(C)C(=O)NC1CCCCC1 | -15[16.7 µM] | -6

Retrieved one by one from above (2):
SMILES | HIV Env fusion | Yeast UUG start
Cc1ccc(S(=O)(=O)Nc2ccc3c(c2)C(=O)N([C@@H](C)CO)C[C@@H](C)[C@H](CN(C)C)OCCCC[C@H](C)O3)cc1 | -5[16.7 µM] | 21
C[C@@H]1CN([C@@H](C)CO)C(=O)Cc2cc(NC(=O)Nc3ccc4c(c3)OCO4)ccc2O[C@H]1CN(C)S(=O)(=O)c1ccc(Cl)cc1 | 22[16.7 µM] | 0

(list continues)
SMILES | HIV Env fusion | Yeast UUG start
COc1ccccc1-c1ccc2c(c1)O[C@H](CN(C)C)[C@H](C)CN([C@H](C)CO)S2(=O)=O | -1[16.7 µM] | 17
Cc1ccc(S(=O)(=O)Nc2ccc3c(c2)C(=O)N([C@@H](C)CO)C[C@@H](C)[C@@H](CN(C)C(=O)NC(C)C)OCCCC[C@@H](C)O3)cc1 | -41[16.7 µM] | 6
C[C@H](CO)N1C[C@H](C)[C@H](CN(C)C(=O)Nc2ccc(F)cc2)OCCCC[C@H](C)Oc2ccc(NC(=O)Cc3ccccc3)cc2C1=O | -89[16.7 µM] | -3
C[C@H]1CN([C@@H](C)CO)C(=O)c2cccc(NC(=O)c3nc4ccccc4s3)c2O[C@@H]1CN(C)Cc1ccc(C(=O)O)cc1 | 20[16.7 µM] | -7
CCCc1cn(CC[C@@H]2CC[C@@H](NC(=O)Nc3ccccc3F)[C@@H](CO)O2)nn1 | -11[16.7 µM] | -5
C[C@H]1CN([C@@H](C)CO)S(=O)(=O)c2ccc(C#CC3(O)CCCC3)cc2O[C@H]1CN(C)C(=O)Cc1cccnc1 | -10[16.7 µM] | -13
CC(C)NC(=O)N(C)C[C@H]1Oc2cc(C3=CCCC3)ccc2S(=O)(=O)N([C@H](C)CO)C[C@H]1C | 2[16.7 µM] | 1
C[C@H](CO)N1C[C@H](C)[C@@H](CN(C)Cc2cccnc2)Oc2ncc(-c3ccc(F)cc3)cc2C1=O | 5[16.7 µM] | 3
COc1ccccc1NC(=O)Nc1ccc2c(c1)OC[C@H](C)NC[C@@H](C)[C@H](OC)CN(C)C2=O | 24[16.7 µM] | -10
COCCNC(=O)C[C@H]1C[C@@H]2c3cc(NS(=O)(=O)c4ccc(F)cc4)ccc3O[C@@H]2[C@@H](CO)O1 | 15[16.7 µM] | 2
Cc1noc(C)c1NC(=O)Nc1cccc2c1O[C@H](CN(C)C(=O)Nc1cccc3ccccc13)[C@H](C)CN([C@@H](C)CO)C2=O | -35[16.7 µM] | 11
C[C@@H]1CN([C@@H](C)CO)C(=O)c2cc(-c3ccc(C#N)cc3)cnc2O[C@@H]1CN(C)C(=O)CN(C)C | -6[16.7 µM] | -4
CC(=O)N(C)C[C@@H]1Oc2ncc(C#C[C@@H](C)O)cc2C(=O)N([C@H](C)CO)C[C@H]1C | -10[16.7 µM] | -15
Cc1noc(C)c1NC(=O)N[C@@H]1C=C[C@H](CC(=O)N2CCCCC2)O[C@H]1CO | 7[16.7 µM] | -14
COc1ccc(S(=O)(=O)N(C)C[C@H]2Oc3ccc(NC(=O)Nc4ccccc4)cc3C(=O)N([C@@H](C)CO)C[C@H]2C)cc1 | -12[16.7 µM] | -5
CNC[C@H]1Oc2ccc(NS(=O)(=O)c3ccc(F)cc3)cc2C(=O)N([C@@H](C)CO)C[C@H]1C | -3[16.7 µM] | -7
C[C@H]1CN([C@@H](C)CO)C(=O)c2cc(/C=C/c3ccccc3)cnc2O[C@@H]1CN(C)C(=O)Nc1ccccc1F | -11[16.7 µM] | -9
C[C@@H]1CN([C@H](C)CO)C(=O)Cc2cc(NC(=O)C3CC3)ccc2O[C@H]1CN(C)Cc1ccc(-c2ccccc2)cc1 | 17[16.7 µM] | 1
CCC(=O)N[C@H]1CC[C@@H](CC(=O)NCCN2CCCCC2)O[C@@H]1CO | -2[16.7 µM] | 0
COc1ccccc1S(=O)(=O)N(C)C[C@H]1Oc2ncc(-c3ccc(C)cc3)cc2C(=O)N([C@H](C)CO)C[C@H]1C | 18[16.7 µM] | 20

Molecules from the list above with a Cl atom:
SMILES | HIV Env fusion | Yeast UUG start
C[C@H](CO)N1C[C@H](C)[C@H](CN(C)Cc2ccc(Cl)c(Cl)c2)Oc2c(NC(=O)Nc3ccccc3)cccc2C1=O | 8[16.7 µM] | 32
C[C@@H]1CN([C@@H](C)CO)C(=O)Cc2cc(NC(=O)Nc3ccc4c(c3)OCO4)ccc2O[C@H]1CN(C)S(=O)(=O)c1ccc(Cl)cc1 | 22[16.7 µM] | 0

Complete entries, quoted from the list. Order of values: HIV Env fusion	Yeast UUG start
CNC[C@@H]1Oc2ccc(NC(=O)CCN3CCOCC3)cc2C(=O)N([C@@H](C)CO)C[C@@H]1C across the screens: -1[16.7 µM]	2
C[C@@H]1CCCCO[C@@H](CN(C)Cc2ccccc2)[C@@H](C)CN([C@@H](C)CO)C(=O)c2cc(NS(=O)(=O)c3ccccc3)ccc2O1 across the screens: 7[16.7 µM]	-3

Later entries:
SMILES | HIV Env fusion | Yeast UUG start
COc1cccc(S(=O)(=O)N[C@H]2CC[C@H](CC(=O)NCc3ccccc3)O[C@H]2CO)c1 | -4[16.7 µM] | -14
O=C(C[C@@H]1CC[C@H]2[C@@H](COC[C@H](O)CN2C(=O)c2ccccc2F)O1)NCc1ccc(Cl)c(Cl)c1 | 18[16.7 µM] | 13
COCC#Cc1ccc2c(c1)O[C@H](CN(C)CC1CCOCC1)[C@@H](C)CN([C@@H](C)CO)S2(=O)=O | -23[16.7 µM] | 8
C[C@@H]1CCCCO[C@@H](CN(C)C)[C@H](C)CN([C@H](C)CO)C(=O)c2cc(NS(=O)(=O)c3ccc(Cl)cc3)ccc2O1 | -17[16.7 µM] | 22
COC(=O)C[C@@H]1CC[C@@H]2[C@H](COc3ccc(NC(=O)Nc4cccc(C)c4)cc3C(=O)N2C)O1 | 9[16.7 µM] | 5
O=C(C[C@H]1C=C[C@@H](NC(=O)Nc2cccc(F)c2)[C@@H](CO)O1)NCC1CC1 | 9[16.7 µM] | 2
CCNC(=O)C[C@@H]1CC[C@@H](NC(=O)NC2CCCCC2)[C@H](CO)O1 | -12[16.7 µM] | -4
COc1ccc(S(=O)(=O)Nc2ccc3c(c2)C(=O)N([C@@H](C)CO)C[C@@H](C)[C@@H](CN(C)S(=O)(=O)c2ccc(OC)cc2)OCCCC[C@H](C)O3)cc1 | -31[16.7 µM] | -10
Cc1ccc(S(=O)(=O)N(C)C[C@@H]2OCCCC[C@@H](C)Oc3ccc(NS(=O)(=O)c4cccs4)cc3C(=O)N([C@H](C)CO)C[C@@H]2C)cc1 | -24[16.7 µM] | 12
C[C@H](CO)N1C[C@H](C)[C@H](CN(C)Cc2ccc3c(c2)OCO3)Oc2ncc(C#Cc3ccccc3)cc2C1=O | 35[16.7 µM] | -1
COc1ccccc1CNC(=O)C[C@@H]1CC[C@@H](NC(=O)CC2CC2)[C@H](CO)O1 | -8[16.7 µM] | -11
C[C@H]1CCCCO[C@@H](CN(C)C(=O)Nc2ccc3c(c2)OCO3)[C@@H](C)CN([C@@H](C)CO)C(=O)c2cc(NS(=O)(=O)c3cccs3)ccc2O1 | -99[16.7 µM] | -5
C[C@H]1CN([C@@H](C)CO)S(=O)(=O)c2ccc(C#Cc3ccc(F)cc3)cc2O[C@@H]1CN(C)C(=O)NC1CCCCC1 | 11[16.7 µM] | 0
C[C@@H]1CN([C@H](C)CO)C(=O)Cc2cc(NC(=O)CCC(F)(F)F)ccc2O[C@H]1CN(C)S(=O)(=O)c1ccc(F)cc1 | -20[16.7 µM] | 5
CC(=O)N(C)C[C@H]1Oc2cc(C#CC3CCCC3)ccc2S(=O)(=O)N([C@H](C)CO)C[C@H]1C | -3[16.7 µM] | -2
C[C@@H]1CN([C@@H](C)CO)C(=O)c2cc(C#C[C@@H](C)O)cnc2O[C@H]1CN(C)C(=O)Nc1ccc(F)cc1 | 1[16.7 µM] | 7
CC(C)C#Cc1ccc([C@H]2[C@@H](CO)N(C(=O)C3CCOCC3)[C@H]2C#N)cc1 | 4[16.7 µM] | -19
COc1ccc(S(=O)(=O)Nc2ccc3c(c2)CC(=O)N([C@H](C)CO)C[C@H](C)[C@@H](CN(C)C(=O)Nc2c(C)noc2C)O3)cc1 | 15[16.7 µM] | -5
C[C@@H]1CN([C@H](C)CO)C(=O)c2cc(NC(=O)Nc3cccc4ccccc34)ccc2O[C@H]1CN(C)C(=O)Nc1ccc(F)cc1 | 1[16.7 µM] | -14
CCCC(=O)Nc1ccc2c(c1)C(=O)N(C)C[C@H](OC)[C@@H](C)CN(C(=O)c1ccccc1F)[C@@H](C)CO2 | -23[16.7 µM] | 2
CCC(=O)N1C[C@H](O)COC[C@@H]2O[C@@H](CC(=O)N3CCCCC3)CC[C@H]21 | -10[16.7 µM] | -5
C[C@@H]1CCCCO[C@H](CN(C)C(=O)Nc2ccc(C(F)(F)F)cc2)[C@@H](C)CN([C@H](C)CO)C(=O)c2cc(NC(=O)Nc3ccc(C(F)(F)F)cc3)ccc2O1 | 16[16.7 µM] | 17
C[C@@H]1CN([C@H](C)CO)S(=O)(=O)c2ccc(C#Cc3ccccc3)cc2O[C@H]1CN(C)C(=O)Nc1ccccc1 | -23[16.7 µM] | -2
C[C@@H]1CN([C@@H](C)CO)C(=O)c2cccc(NC(=O)Nc3ccc(F)cc3)c2O[C@@H]1CN(C)Cc1ccc(-c2ccccc2)cc1 | -134[16.7 µM] | -7
C[C@@H]1CN([C@@H](C)CO)C(=O)c2cc(C3=CCCC3)cnc2O[C@H]1CN(C)Cc1ccccc1 | -1[16.7 µM] | 9
O=C(NCC[C@@H]1CC[C@@H](NS(=O)(=O)c2ccccc2)[C@@H](CO)O1)c1cc(Cl)cc(Cl)c1 | -13[16.7 µM] | -1
C[C@@H]1CCCCO[C@@H](CN(C)C(=O)Cc2ccccc2)[C@@H](C)CN([C@H](C)CO)C(=O)c2cc(NC(=O)NC3CCCCC3)ccc2O1 | 5[16.7 µM] | 10
COc1ccccc1NC(=O)N[C@@H]1CC[C@H](CCNS(=O)(=O)c2ccc(Cl)cc2)O[C@H]1CO | -1[16.7 µM] | 7
COc1ccc(S(=O)(=O)N[C@@H]2CC[C@@H](CCNC(=O)c3ccccc3F)O[C@@H]2CO)cc1 | 13[16.7 µM] | 0
